From PubChem
B2AR ag = activates human beta-2 adrenergic receptor causing internalization; response, % (test concentration not listed); hit rate 0.43% among 340,000; P07550; Am2.2-beta2AR cells, FAP receptor internalization, flow cytometry; reference of the scale not given here;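 active = response above a set limit, near 3 SD of response in nonfluorescent compounds, cut at about 42% in these data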;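 note: stock transfer was 100 nL into about 11 µL; a reference agonist was the positive control; negative values mostly stem from fluorescent compounds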
Target sequence (P07550 whole entry, looked up): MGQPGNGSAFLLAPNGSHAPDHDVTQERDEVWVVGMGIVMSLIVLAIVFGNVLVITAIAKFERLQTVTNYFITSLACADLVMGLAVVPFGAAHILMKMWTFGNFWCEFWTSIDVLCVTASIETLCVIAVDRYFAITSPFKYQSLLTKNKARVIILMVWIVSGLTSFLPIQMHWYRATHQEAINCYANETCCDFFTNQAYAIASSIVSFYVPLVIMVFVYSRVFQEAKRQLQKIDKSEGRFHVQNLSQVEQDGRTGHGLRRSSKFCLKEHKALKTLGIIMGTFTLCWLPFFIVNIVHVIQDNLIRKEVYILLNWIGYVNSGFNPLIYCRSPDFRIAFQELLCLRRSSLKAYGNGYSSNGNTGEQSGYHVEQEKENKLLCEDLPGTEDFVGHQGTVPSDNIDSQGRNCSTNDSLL
Ecoli rRNA inh = selective bacterial rRNA inhibition in E. coli. E. coli WT GFP vs humanized-ribosome RFP mutants, fluorescence, 24 h; hits give low values; DMSO median 0, no signal -100. GFP signal change (wild-type ribosome), % (concentration not given with the values). hit rate 1.6% among 350,000. AID 720706;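 active = significant combined selectivity score with lowered wild-type GFP, culture density cut under 30%, mutant RFP and density less affected; inactive = any of these conditions unmet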; note: one replicate is shown; some compounds called inactive have numbers as strong as hits
HNF4A DNA FP = change in binding of human HNF4 alpha to DNA. P41235. HNF4a-FITC DNA binding, fluorescence polarization, 1 h. activity change, % at 10 µM. hit rate 0.3% among 360,000. AID 1224865; in the data active = activity change above about 30%, passing the limit was not always enough;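 note: controls were the assay level and a saturating level of protein; the project sought stronger binding though the title names inhibitors; some compounds called inactive have numbers as strong as hits; positive values seem to mean higher polarization but the record does not say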
E coli growth = E. coli growth inhibition | Escherichia coli growth, OD600, 23 h; hits give low values | OD600 absorbance (concentration not given with the values) | hit rate 0.21% among 330,000 | AID 1053175;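 active = OD600 absorbance below the run mean of sample wells minus 3.6 SD, in any replicate, cut at about 0.56 in these data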;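 note: stock transfer was 300 nL into about 60 µL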
FGF22 binding = shifts melting point of recombinant human FGF22; Q9HCT0; calls only at 9.99 µM; recombinant FGF22 thermal shift, SYPRO orange fluorescence; percent of sucrose octasulfate shift, DMSO zero; hit rate 1.5% among 340,000;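 active = melting point raised past a set limit in the mean and every replicate; inconclusive = no clear call; three in four hits are not shown here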
Target sequence (Q9HCT0 whole entry, looked up): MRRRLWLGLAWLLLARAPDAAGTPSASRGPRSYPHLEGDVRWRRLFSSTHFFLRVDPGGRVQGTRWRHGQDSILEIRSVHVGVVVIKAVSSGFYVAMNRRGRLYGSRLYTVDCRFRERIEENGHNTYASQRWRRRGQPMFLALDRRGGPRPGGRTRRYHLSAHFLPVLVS
ALR H2O2 inh = human ALR oxidase inhibition via reduced H2O2 | P55789 | purified ALR, DTT oxidation, H2O2 HRP-luminol luminescence | inhibition, % (no concentration beside the values) | hit rate 3.8% among 290,000;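 active = mean and each replicate at 75% or more; inconclusive = only one of the two met; inactive = neither met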;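 note: stock transfer was 7.5 nL into about 7.5 µL; 0% = neutral wells and 100% = wells with inactivated enzyme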
UCH37 DUB inh = inhibitors of human deubiquitinating enzyme UCH37 | Q9Y5K5 | purified proteasome/UCH37, Ub-AMC cleavage fluorescence | inhibition, % (no concentration beside the values) | hit rate 0.33% among 330,000;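 active = mean of two replicates above 20%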;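 note: 0% = compound-free wells with enzyme and 100% = wells lacking proteasome; stock transfer was 100 nL into about 20 µL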
Target sequence (Q9Y5K5 whole entry, looked up): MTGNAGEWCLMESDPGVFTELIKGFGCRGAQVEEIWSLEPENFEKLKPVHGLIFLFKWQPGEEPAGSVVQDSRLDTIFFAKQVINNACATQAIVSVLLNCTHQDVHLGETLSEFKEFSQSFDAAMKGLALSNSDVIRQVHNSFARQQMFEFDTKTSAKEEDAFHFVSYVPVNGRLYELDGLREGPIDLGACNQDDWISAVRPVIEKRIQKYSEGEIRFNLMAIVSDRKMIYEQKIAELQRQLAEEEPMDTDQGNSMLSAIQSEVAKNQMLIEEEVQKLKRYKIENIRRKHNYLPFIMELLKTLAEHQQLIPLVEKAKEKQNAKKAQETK
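Signal – fluorescence, ex 355 nm, em 460 nm · System – Proteasome-bound UCH37 · Input – 0.15 nM proteasome as dispensed · Timing – 30 min preincubation with enzyme, 25 min cleavage at room temperature · Read-out basis – percent inhibition of cleavage signal versus uninhibited and no-proteasome wells · Medium – Tris-HCl pH 7.4 with ATP-MgCl2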
Ecoli rRNA inh OD600 = recorded beside Ecoli rRNA inh, whose call it bears; OD600 change, %; measured here: OD600 growth;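 optical density of the mix in the first replicate; 0 = DMSO median and -100 = no signal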
Ecoli rRNA inh RFP = second read-out of Ecoli rRNA inh, no call of its own (marks repeat the call); RFP signal change, %; measured here: RFP humanized mutant strains;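 first replicate; 0 = DMSO median and -100 = no signal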
An asterisk follows results filed as active; i = inactive; ? = inconclusive; . = no result given; + = active, no number. Not all compounds are listed; count on the stated rates, not on these rows.

SMILES	B2AR ag	Ecoli rRNA inh	Ecoli rRNA inh OD600	Ecoli rRNA inh RFP	HNF4A DNA FP	E coli growth	FGF22 binding	ALR H2O2 inh	UCH37 DUB inh
CCc1nc2ccc(C(=O)Nc3cc(-c4ccccc4)ccc3OC)cn2c1N(CC)CC(=O)N(C)C	.	-26	-35	6.1	-2.9	.	i	.	.
C/C(=N\NC(=O)c1ccc(N2CCCC2=O)cc1)c1ccccc1	-18	-6	-17	0.1	-1.7	.	i	-6	.
O=C(NNC(=O)c1ccc2ccccc2c1O)Nc1ccc(F)cc1	3	-3	1	-2.7	-2.5	0.73	i	1	-150
CC(C)N(Cc1ccccc1)C(=O)COC(=O)c1cc[n+]([O-])cc1	2	-1	4	-2.3	-3.5	.	i	-10	.
COc1ccc(OC)c(NC(=O)C(CC(=O)O)Cc2ccc(Cl)cc2)c1 (stereo not drawn)	7	.	.	.	-2.3	0.68	.	-14	-0.9
CCCNC(=O)C1(C)CCCN(Cc2cccc(C(F)(F)F)c2)C1 (stereo not drawn)	.	-4	-27	-11	0.7	.	i	.	.
Cc1c(Cc2ccccc2)c(=O)oc2cc(OCC(=O)NCC3CCC(C(=O)O)CC3)ccc12 (stereo not drawn)	1	.	.	.	-0.3	0.69	i	4	-196
Cc1ccc2c(CN(C)Cc3ccc(OC(F)F)cc3)cc(=O)oc2c1C	2	-8	-12	0.5	12	0.66	i	-18	1.0
CCOc1ccc2nc(Cl)c(CN(C(=O)c3cnccn3)C3CCCC3)cc2c1	-9	9	4	0.1	-2.0	0.67	i	-4	-2.8
CC(C)(C)n1nnnc1C(c1cccs1)N(Cc1cccnc1)Cc1ccco1 (stereo not drawn)	-1	.	.	.	3.2	0.7	.	.	1.1
CC(OC(=O)c1cnc2ccccc2n1)c1ccccc1Cl (stereo not drawn)	-5	-10	-20	-1.5	-1.7	0.66	i	-7	7.6
CCCC(C(=O)N1CCOCC1)N1C(=O)C2C3C=CC(C3)C2C1=O (stereo not drawn)	7	3	3	13	2.0	0.7	i	-4	2.6
Cn1ccc2c(N3CCOCC3)cc3c(c21)C1CCC3C1 (stereo not drawn)	.	-6	-26	-1.7	2.4	.	i	.	.
CCOC(=O)c1[nH]c(C)c(C(=O)N2CCCC(Nc3ccc(C)c(C)c3)C2)c1C (stereo not drawn)	2	-2	-7	5.8	0.6	0.7	i	99*	5.9
N=c1c2c(n(Cc3ccc(Cl)c(Cl)c3)c3c1CCC3)CCCC2	3	.	.	.	1.5	0.73	.	2	5.4
CCCC(=O)N1CCC1(C)C(=O)NS(=O)(=O)c1cccc(C)c1 (stereo not drawn)	.	13	34	-1.9	0.2	.	i	.	.
COC(=O)c1ccc(N2CCN(C)CC2)c(NC(=O)COc2cccc(C)c2)c1	1	1	4	-2.1	1.9	0.7	i	3	5.4
Cc1cc(C)c(OCC(=O)OCC(=O)NNC(=O)c2ccccc2F)c(C)c1	-3	6	14	-1.8	2.2	0.65	i	.	1.2
O=C1NC(c2ccccc2)C(c2ccccc2)N1 (stereo not drawn)	-4	2	0	-5.4	3.2	.	i	.	.
Cc1cc(C)cc(NC(=S)NC2CC3CCCC(C2)N3C2CC2)c1 (stereo not drawn)	5	12	3	1.7	4.0	0.69	.	3	5.0
Cc1cccc(Cc2cnc(NC(=O)C3=NCCN3)s2)c1	-1	6	3	5.5	1.0	0.68	i	5	-0.6
CCn1cc(C(=O)NCc2ccco2)c(=O)c2cc(F)c(N3CCN(C(=O)c4ccco4)CC3)cc21	-7	.	.	.	-1.1	0.45*	.	-18	-113
Cc1ccc(-c2nnc(SCC(=O)NC3CCCc4ccccc43)n2N)cc1 (stereo not drawn)	-8	.	.	.	1.2	0.63	.	-9	5.8
O=C(NCc1ccccc1)C1CCC(=O)N(CCN2CCOCC2)C1 (stereo not drawn)	1	9	15	2.4	2.2	0.7	i	-3	2.3
Cc1ccc(/C=C2\SC(=S)N(CCC(=O)NNC(=O)c3ccncc3)C2=O)cc1	-1	13	13	2.4	14	0.74	i	-4	6.2
O=C1CCCC(O)=C1C1C2=C(CCCC2=O)OC2=C1C(=O)CCC2	-5	15	16	0.0	2.1	0.7	.	-2	1.6
CS(=O)(=O)N(CC(=O)N1CCCCCC1)c1cccc(Br)c1	-1	.	.	.	1.0	0.69	.	6	4.0
COc1ccccc1Cc1c(-c2cccc(Br)c2)nc2ccc(Br)cn12	.	-4	-22	-4.1	20	.	i	.	.
CN(CC(=O)Nc1ccc(F)cc1)C(=O)COC(=O)c1cc(S(=O)(=O)N(C)C)ccc1N1CCCC1	-1	-5	-5	1.6	-1.4	0.71	i	-1	4.4
O=C(O)C(Cc1c[nH]c2ccccc12)N1C(=O)c2ccccc2C1=O (stereo not drawn)	5	11	7	0.7	2.2	0.71	i	-4	4.0
CCc1ccc(NC(=O)c2cc(S(=O)(=O)N3CCc4ccccc43)cn2C)cc1	13	6	3	0.6	4.0	0.68	i	-2	2.1
O=C(O)CC(c1ccc(Br)cc1)N1Cc2ccccc2C1=O (stereo not drawn)	-1	2	1	-2.9	5.3	0.63	i	-14	1.7
COc1ccccc1NS(=O)(=O)c1cccc(C(=O)N/N=C/c2c(C)nn(-c3ccccc3)c2N2CCCC2)c1	6	0	-2	-3.9	-0.8	.	i	-6	.
Cc1cc(C)cc(NC(=O)[C@H](Cc2c[nH]c3ccccc23)NC(=O)[C@@H]2Cc3ccccc3CN2)c1	4	.	.	.	3.5	0.73	i	-7	-4.0
CCOC(=O)c1sc(NC(=O)CSc2nnc(C(C)C)n2CC)nc1C	-5	.	.	.	-4.2	0.69	.	-5	3.9
Cc1cc(C)n(-c2nc(O)cc(=O)[nH]2)n1	-2	.	.	.	-2.2	0.73	.	3	3.6
O=C(Nc1cccc(C(F)(F)F)c1)c1cccc(NS(=O)(=O)c2ccc(O)c(C(=O)O)c2)c1	-7	1	-6	20	-0.3	0.63	+	8	-3.9
Cc1cc(C(=O)CSc2nnc(-c3cccnc3)n2-c2ccccc2F)c(C)n1CC1CCCO1 (stereo not drawn)	-6	.	.	.	-5.3	0.73	.	-4	-5.1
O=C(NCCc1ccccc1)c1[nH]c(C(F)(F)F)nc1-c1ccccc1	.	0	-6	1.8	-0.4	.	i	.	.
COc1ccc2ccc(OCC(=O)NCC3CCCO3)cc2c1 (stereo not drawn)	-4	-4	-1	0.2	-0.6	0.65	i	.	1.4

4 entries from above, ordered by the value under ALR H2O2 inh, smallest number first.
Structure,B2AR ag,Ecoli rRNA inh,Ecoli rRNA inh OD600,Ecoli rRNA inh RFP,HNF4A DNA FP,FGF22 binding,ALR H2O2 inh,UCH37 DUB inh
Cc1cc(C(=O)CSc2nnc(-c3cccnc3)n2-c2ccccc2F)c(C)n1CC1CCCO1 (stereo not drawn),-6,.,.,.,-5.3,.,-4,-5.1
O=C1CCCC(O)=C1C1C2=C(CCCC2=O)OC2=C1C(=O)CCC2,-5,15,16,0.0,2.1,.,-2,1.6
CS(=O)(=O)N(CC(=O)N1CCCCCC1)c1cccc(Br)c1,-1,.,.,.,1.0,.,6,4.0
O=C(Nc1cccc(C(F)(F)F)c1)c1cccc(NS(=O)(=O)c2ccc(O)c(C(=O)O)c2)c1,-7,1,-6,20,-0.3,+,8,-3.9

Next part
SMILES	B2AR ag	Ecoli rRNA inh	Ecoli rRNA inh OD600	Ecoli rRNA inh RFP	HNF4A DNA FP	E coli growth	FGF22 binding	ALR H2O2 inh	UCH37 DUB inh
Cc1cscc1-c1nc(NCC2CC2)nc2ccsc12	.	-10	0	-1.6	-2.9	.	i	.	.
C#CCNc1nc(C(C)C)nc2c1nnn2Cc1ccccc1F	1	.	.	.	5.1	0.69	.	3	5.2
COc1ccc(Cl)cc1-c1cc(C(=O)NCC2CCCCC2)[nH]n1	.	-13	-51	11	2.9	.	i	.	.
O=C(O)/C=C/c1ccc2c(-c3ccccc3)onc2c1	1	-15	-31	-17	1.1	.	i	93*	.
O=C(Nc1nnc(CSCc2ccccc2F)s1)c1cccc([N+](=O)[O-])c1	1	2	-3	-0.6	2.7	0.68	i	1	-1.6
O=C1CCC(=O)N1CC(=O)N1CCCc2ccccc21	1	3	-1	-2.7	1.8	0.66	i	.	0.8
O=C(O)c1[nH]c2ccccc2c1C(c1c(F)cccc1Cl)c1c(C(=O)O)[nH]c2ccccc12	-7	8	1	4.5	-5.8	0.64	.	.	3.6
CC(=O)c1ccc(NC(=O)COC(=O)C2CC3C=CC2C3)cc1 (stereo not drawn)	-6	-4	-3	-0.1	-0.4	0.61	i	0	0.3
N#C/C(=C\c1ccc(O)cc1)C(=O)NCc1ccccc1	-2	-12	-10	3.4	-0.5	0.69	i	-11	4.8
O=C(/C(C=Nc1ccc(F)cc1)=C(/O)c1ccco1)C(F)(F)F	-8	.	.	.	1.4	0.72	.	-8	9.6
CCn1ccc(C(=O)NCCCN2CCCC2=O)n1	4	19	8	2.0	-4.0	0.68	i	-2	4.2
Cc1cc(-c2ccc(C)c(S(=O)(=O)NC(C)Cc3ccco3)c2)on1 (stereo not drawn)	-12	-35*	-21*	1.0*	3.1	0.68	i	4	-1.4
O=C(COC(=O)c1cnccn1)c1ccc2c(c1)CCCC2	-2	.	.	.	-1.2	0.67	.	4	3.1
Cc1cc2occ(CC(=O)N(CC(C)C)c3c(N)n(Cc4ccccc4)c(=O)[nH]c3=O)c2cc1C	-3	8	12	-0.8	5.3	0.66	i	-3	3.2
CCc1ccc(C(=O)COC(=O)C(Cc2ccccc2)NC(=O)c2ccc(Cl)cc2)cc1 (stereo not drawn)	6	.	.	.	1.0	0.77	.	0	4.5
COC(=O)C1(C)NC(c2ccccc2C)C2C(=O)N(c3ccccc3)C(=O)C21 (stereo not drawn)	-2	0	3	0.1	-0.3	0.69	i	-17	5.0
CC1(C)CC[C@]2(C(=O)O[C@@H]3OC(CO)[C@@H](O)[C@H](O)[C@H]3O)CC[C@]3(C)C(=CCC4[C@@]5(C)CC[C@H](O[C@@H]6OC(C(=O)O)[C@@H](O)[C@H](O)[C@H]6O)C(C)(C)C5CC[C@]43C)[C@@H]2C1 (stereo partly drawn)	0	13	12	1.4	-2.0	0.69	i	5	5.2
Cc1ccc(/C(N)=N/OC(=O)c2cccc(F)c2)cc1	5	.	.	.	4.1	0.72	.	?	5.3
O=C(OCC(=O)N1CCN(C(=O)c2ccco2)CC1)c1cc(-c2ccc(F)cc2)nc2ccccc12	-15	.	.	.	1.2	0.71	.	-8	-63
O=C(Nc1ccc(F)cc1F)N1CCC(c2nc3ccccc3o2)CC1	-1	-21	-21	-3.0	4.0	0.63	i	-6	2.1
COc1ccc(Br)cc1C(=O)NCc1cccnc1	-13	.	.	.	3.9	0.7	.	-2	4.0
CC(=O)CCc1ccc(OC(=O)c2cccnc2)cc1	4	.	.	.	-3.6	0.69	.	-7	3.8
CCCCc1nnc(NC(=O)CSCc2cc(=O)n3c(C)csc3n2)s1	-9	10	17	2.7	-1.3	0.7	i	-11	-10
O=C(c1ccc(Br)cc1)N1CCN(Cc2ccccc2)CC1	-2	2	-1	1.1	-1.7	0.63	i	-2	3.9
Cc1ccc(N/C=C(/C#N)c2ccsc2)cc1C	1	.	.	.	-1.9	.	.	.	5.3
Cc1ccc(C)c(S(=O)(=O)N2CCCCC2CCNC(=O)C(=O)NCc2ccccn2)c1 (stereo not drawn)	3	-3	-11	0.4	3.0	0.66	i	-21	0.4
Cc1ccc(S(=O)(=O)N2CCN(CCC#N)CC2)cc1	1	2	10	0.9	3.0	0.66	i	-1	3.3
